Marburg entry inh = qHTS for inhibitors of binding or entry into cells for Marburg Virus | Marburg virus pseudotyped entry inhibition, cell reporter; control for the full effect not named in the record; about a third of the inactives were read at about 46 µM | Potency, µM (titrated, usually from 37.8 µM), for inactives: top-dose activity change, negative = inhibition, hits mostly inhibitors | hit rate 1.8% among 300,000 | AID 540276, 2011; active = well fitted inhibition curve with a large enough effect; inconclusive = small, poorly fitted or top-dose-only effect, or effect the other way; inactive = flat fitted curve, though single readings scatter; tested in HEK293 cells; about a fifth of its hits are not listed in these tables; note: % is set by controls: 0 for no effect and ±100 for the full control effect; luciferase read-out
NS1 inh = qHTS Assay for Inhibitors of Influenza NS1 Protein Function. hit rate 0.4% among 270,000. AID 2326, 2010. Potency, µM (series often up to 46.1 µM), for the others: at the top dose activity, positive = more growth. S. cerevisiae slowed by influenza A NS1, growth recovery by OD600; note: actives are rising curves; nearly all actives have a fitted effect of over 50% in size
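S. cerevisiae expressing influenza A NS1, grown in glucose, washed, then diluted 1:100 into pH 6.0 -URA galactose medium with 23 nl compound. Growth recovery read as OD600; NS1-free strain serves as control.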
Cruzain inh noDet = qHTS Assay for Promiscuous and Specific Inhibitors of Cruzain (without detergent) | Potency, µM, for inactives: max response, negative = inhibition, usual class: inhibitors | purified cruzain, Z-FR-AMC fluorescence, no detergent | Cruzipain (Trypanosoma cruzi), P25779 | hit rate 2.3% among 200,000; active = well fitted curve in the direction sought with a large enough effect; inconclusive = small, poorly fitted or top-dose-only effect, or another doubt; inactive = no such curve, though single readings can be large; an effect the other way counts as inactive or inconclusive;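 note: plate controls were enzyme without inhibitor for no effect and buffer without enzyme for full effect; nearly all actives have a fitted effect of over 40% in size; top concentration of the series not given in the record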
Target sequence (P25779 123-467 limits assumed): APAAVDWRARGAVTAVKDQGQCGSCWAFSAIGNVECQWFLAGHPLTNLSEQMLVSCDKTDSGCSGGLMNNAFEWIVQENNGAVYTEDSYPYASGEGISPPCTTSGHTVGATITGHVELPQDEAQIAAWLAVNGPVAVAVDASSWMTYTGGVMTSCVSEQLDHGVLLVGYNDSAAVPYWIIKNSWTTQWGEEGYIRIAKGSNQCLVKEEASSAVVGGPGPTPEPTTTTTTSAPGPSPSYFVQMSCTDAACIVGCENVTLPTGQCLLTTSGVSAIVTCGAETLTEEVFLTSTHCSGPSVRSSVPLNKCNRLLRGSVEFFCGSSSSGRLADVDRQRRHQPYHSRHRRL
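Purified cruzain at 1.5 nM, pre-incubated 15 min with compound at room temperature in 100 mM sodium acetate pH 5.5, 5 mM DTT, 0.00005% Triton X-100. Reaction started with 2 uM Z-FR-AMC; AMC fluorescence increase over 60 s gives rate.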
RE007 growth inh = qHTS Assay for Inhibitors of the HIV-1 protein Vpr; AID 651644, 2012; Potency, µM (series often up to 92.2 µM), inactives show at the highest dose activity change, negative = less growth; hit rate 0.21% among 360,000; S. pombe RE007 Vpr strain, BacTiter-Glo ATP luminescence, 24 h; control for the full effect not named in the record; active = well fitted falling curve with a large enough effect; inconclusive = small, poorly fitted or top-dose-only effect; inactive = no such curve, though single readings can be large or run the other way;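 note: % is set by controls: 0 for no effect and ±100 for the full control effect; nearly all actives have a fitted effect of over 50% in size; the assay follows cell death caused by Vpr and the record does not say whether a fall means rescue or toxicity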
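Fission yeast RE007 carrying one integrated HIV-1 vpr copy, seeded at OD 0.01 in PMG+AL medium with 23 nL pinned compound. Grown 24 h at 30 degrees; viability read by BacTiter-Glo luminescence after 5 min.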
LASV entry inh = qHTS for Inhibitors of binding or entry into cells for Lassa Virus; AID 540256, 2011; hit rate 1.2% among 300,000; Potency, µM (highest dose often 37.9 µM), for inactives: at the top dose activity change, negative = inhibition, hits mostly inhibitors; Lassa virus pseudotype entry inhibition, cell reporter; control for the full effect not named in the record; active means well fitted inhibition curve with a large enough effect; inconclusive means small, poorly fitted or top-dose-only effect, or effect the other way; inactive means flat fitted curve, though single readings scatter; tested in HEK293 cells; note: % is set by controls: 0 for no effect and ±100 for the full control effect; nearly all actives have a fitted effect of over 50% in size; luciferase read-out
Cruzain inh Det = qHTS Assay for Promiscuous and Specific Inhibitors of Cruzain (with detergent); Cruzipain (Trypanosoma cruzi), P25779; Potency, µM, for the others: max response, negative = inhibition, usual class: inhibitors; AID 1478, 2009; purified cruzain, Z-FR-AMC fluorescence, 0.01% Triton; hit rate 0.43% among 200,000; active = well fitted curve in the direction sought with a large enough effect; inconclusive = small, poorly fitted or top-dose-only effect, or another doubt; inactive = no such curve, though single readings can be large; an effect the other way counts as inactive or inconclusive;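 note: plate controls were neutral wells for no effect and buffer without enzyme for full effect; nearly all actives have a fitted effect of over 40% in size; top concentration of the series not given in the record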
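Enzyme 1.5 nM, Z-FR-AMC 2 uM, NaOAc 100 mM pH 5.5, DTT 5 mM, Triton X-100 0.01%; 15 min RT compound preincubation; kinetic ex360/em450, 60 s delta.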
StopGo reporter = High Throughput Screening for Foot and Mouth Disease Virus Antivirals; AID 1159524, 2015; hit rate 1.2% among 410,000; human cells with a luciferase reporter of 2A StopGo recoding; control for the full effect not named in the record; Potency, µM (doses to about 57.9 µM), for inactives: at the highest dose signal change, negative = less light; active = well fitted falling curve with a large enough effect; inconclusive = small, poorly fitted or top-dose-only effect; inactive = no such curve, though single readings can be large or run the other way; tested in HEK293T cells; note: % is set by controls: 0 for no effect and ±100 for the full control effect; nearly all actives have a fitted effect of over 45% in size; luciferase light after 4 h
SARS PLP yeast = qHTS of Yeast-based Assay for SARS-CoV PLP; S. cerevisiae expressing SARS-CoV PLpro, growth rescue; control for the full effect not named in the record; hit rate 0.19% among 330,000; Potency, µM (top dose mostly 32.9 µM), for inactives: top-dose activity, positive = growth rescue; note: 0% is about no effect; nearly all actives have a fitted effect of over 55% in size; growth read by luminescence after 48 h
Starred values were filed as active, the others as inactive; ? = inconclusive; nt = not tested or not shown; & = joins results of further samples; [ ] = dose if it differs, or a comment. Unless noted, calls come from the whole dose curve; as a rule, active means well fitted rising curve with a large enough effect; inconclusive means small, poorly fitted or top-dose-only effect; inactive means no such curve, though single readings can be large or run the other way. Potency is the fitted concentration of half-maximal effect. Compounds as they come; 4.6% or so of the library scored in one or more.

SMILES	Marburg entry inh	NS1 inh	Cruzain inh noDet	RE007 growth inh	LASV entry inh	Cruzain inh Det	StopGo reporter	SARS PLP yeast
Cc1ccccc1NC(=O)C1Cc2ccccc2CN1C(=O)c1ccco1 (stereo not given)	7%	8%	nt	-4%	27%	nt	27%	-4%
O=C(c1ccc(S(=O)(=O)N2CCOCC2)cc1)N1CCc2ccccc2C1	12%	-12%	13%	-7%	-8%	1.9%	-20%	2%
O=c1c2ccccc2nc(/C=C/c2ccco2)n1-c1ccccc1O	nt	11%	nt	13%	nt	nt	-25%	0%
COc1ccc(NC(=O)Nc2nnc(N3CCCCCC3)s2)cc1	-3%[46.1 µM]	nt	-6%	nt	5%[46.1 µM]	-4.3%	-19%	nt
O=C(O)CCCC(=O)NCc1ccccn1	9%	8%[9.22 µM]	-6%	0%	-4%	6.7%	-20%	4%
CN1CCc2nc(NC(=O)COc3ccc4ccccc4c3)sc2C1	?	nt	nt	-6%	?	nt	-16%	-8%
Cc1ccc(S(=O)(=O)N(C)c2ccc(OCC(=O)Nc3ccc(C(=O)N(C)C)cc3)cc2)cc1C	12%	nt	nt	-18%	9%	nt	7%	-3%
CC(NC(=O)Cn1ccc2cc(S(=O)(=O)N3CCCCCC3)ccc21)c1ccccc1 (stereo not given)	nt	nt	-25%	nt	-28%[46.1 µM]	-8.0%	-4%	nt
CCOC(=O)C(C)N1C(=O)S/C(=C/c2cc(C)n(-c3ccncc3)c2C)C1=O (stereo not given)	nt	1%	nt	6%	nt	nt	-9%	-2%
Cc1ccccc1OCC(=O)OC(C)CN1CCN(C)CC1 (stereo not given)	4%	-2%	5%	9%	3%	4.2%	14%	8%
O=C(c1ccc(C(F)(F)F)cc1)N1CCC(c2nc(-c3ccc(S(=O)(=O)N4CCCC4)cc3)no2)CC1	-25%[46.1 µM]	nt	6%	nt	-7%[46.1 µM]	1.6%	-26%	nt
[O-]/C(=C(\C(=S)Nc1cccc2ccccc12)[n+]1ccccc1)c1ccc2c(c1)OCCO2	?	16%	13µM*	-21%	-4%	-5.6%	-4%	4%

Record cards, as listed above. Screens in order: Marburg entry inh	NS1 inh	Cruzain inh noDet	RE007 growth inh	LASV entry inh	Cruzain inh Det	StopGo reporter	SARS PLP yeast
`O=C(c1ccc(C(F)(F)F)cc1)N1CCC(c2nc(-c3ccc(S(=O)(=O)N4CCCC4)cc3)no2)CC1` in the list: -25%[46.1 µM]	nt	6%	nt	-7%[46.1 µM]	1.6%	-26%	nt
`CC(NC(=O)Cn1ccc2cc(S(=O)(=O)N3CCCCCC3)ccc21)c1ccccc1` (stereo not given) in the list: nt	nt	-25%	nt	-28%[46.1 µM]	-8.0%	-4%	nt
`CN1CCc2nc(NC(=O)COc3ccc4ccccc4c3)sc2C1` in the list: ?	nt	nt	-6%	?	nt	-16%	-8%
`O=C(c1ccc(S(=O)(=O)N2CCOCC2)cc1)N1CCc2ccccc2C1` in the list: 12%	-12%	13%	-7%	-8%	1.9%	-20%	2%

Back to the main list; the two compounds before the break are reprinted first.
SMILES	Marburg entry inh	NS1 inh	Cruzain inh noDet	RE007 growth inh	LASV entry inh	Cruzain inh Det	StopGo reporter	SARS PLP yeast
O=C(c1ccc(C(F)(F)F)cc1)N1CCC(c2nc(-c3ccc(S(=O)(=O)N4CCCC4)cc3)no2)CC1	-25%[46.1 µM]	nt	6%	nt	-7%[46.1 µM]	1.6%	-26%	nt
[O-]/C(=C(\C(=S)Nc1cccc2ccccc12)[n+]1ccccc1)c1ccc2c(c1)OCCO2	?	16%	13µM*	-21%	-4%	-5.6%	-4%	4%
COc1ccc(C(=O)N/C(=C\c2cccc([N+](=O)[O-])c2)C(=O)Nc2cccc(C(=O)O)c2)cc1	2%[46.1 µM]	10%	nt	21%	-4%	nt	5%	0%
CC1CCN(C(=O)c2cc3c(=O)n(C)c4cc(Cl)ccc4c3s2)CC1	?	nt	16%	nt	1%[46.1 µM]	3.4%	-2%	nt
Fc1ccc(COc2ccc3ccccc3c2CNc2nn[nH]n2)cc1	?	-3%	nt	2%	-7%[46.1 µM]	nt	-8%	1%
Cc1ccc(N(CC(=O)N2CCCC2)S(C)(=O)=O)c(C)c1	14%[46.1 µM]	24%	nt	-5%	2%[46.1 µM]	nt	-8%	-3%
COC(=O)c1ccc(S(=O)(=O)N2C3CCC2CC(NC(=O)NC2CCCCC2)C3)cc1 (stereo not given)	6%	-6%	-2%	13%	6%	2.3%	10%	-7%
Cc1c(CN2CCN(CC(C)C)C(CCO)C2)[nH]c2ccc(Cl)cc12 (stereo not given)	?	14%	nt	-7%	-27%[46.1 µM]	nt	-8%	-6%
CCCCOC(=O)Nc1nnc(SCCOc2ccc(C)cc2)s1	11%	0%	?	4%	10%	2.2%	-22%	4%
c1ccc(Cn2nnnc2C(c2cccs2)N2CCc3ccccc3C2)cc1 (stereo not given)	-3%	-48%	2%	4%	-2%	-0.7%	-1%	-17%
CSCCC(NC(=O)COc1ccccc1)C(=O)N1CCN(C(C)=O)CC1 (stereo not given)	-1%	2%	nt	-7%	?	nt	-3%	?
CN(C)CCNC(=O)C(=O)c1c(-c2ccccc2)cc2ccccn12	-5%[46.1 µM]	nt	nt	-12%	3%	nt	-6%	1%
CN(Cc1ccc(F)cc1)Cc1nc(-c2cnccn2)no1	2%[46.1 µM]	2%	nt	10%	-27%	nt	22%	1%
NS(=O)(=O)c1ccc(SCc2ccccc2)nc1	?	nt	nt	23%	?	nt	9%	nt
O=C(COC(=O)CCS(=O)(=O)c1ccccc1)NC(=O)c1ccc(OC(F)F)cc1	?	nt	nt	-4%	2%[46.1 µM]	nt	2%	-4%
CN(C)CCNC(=O)C(=O)Nc1cc2c3c(c1)CCC(=O)N3CCC2	nt	-7%	nt	-5%	nt	nt	2%	3%
Clc1ccc2nc(N3CCCCC3)sc2c1	?	-3%	13%	?	?	-10%	11%	14%
Cc1ccc2c(c1)COc1c3ccc(C(=O)O)cc3nn1-2	nt	-46%	nt	-14%	nt	nt	10µM*	-5%
O=C(Nc1nnc(C2=COCCO2)o1)c1ccc(F)cc1	22%[46.1 µM]	-23%	nt	-19%	1%[46.1 µM]	nt	7%	-1%
CCN(Cc1ccccc1)C(=O)Cn1cc(S(=O)(=O)NC)c(S(=O)(=O)NC)c1	nt	5%	nt	22%	nt	nt	-13%	0%
CCc1ccc2ncc3c(-c4ccc(C)cc4)nn(CC(=O)Nc4ccc(C)cc4)c3c2c1	nt	nt	16%	nt	-26%[46.1 µM]	0.0%	6%	nt
CCN1CCN(C(=O)CN(c2ccc(F)cc2)S(=O)(=O)c2ccc(OC)c(OC)c2)CC1	30%	12%	nt	1%	-2%	nt	-5%	3%
CCCCCOC(=O)CSc1n[nH]c(=O)[nH]c1=O	6%	-1%	11%	12%	0%	-1.6%	-1%	1%
N#C/C(=C\c1ccc(F)cc1)C(=O)Nc1ccccn1	15%[46.1 µM]	1%	nt	1%	?	nt	23%	1%
O=C(Nc1ccc(N2CCOCC2)cc1)c1cccc(S(=O)(=O)N2CCC(Cc3ccccc3)CC2)c1	?	-1%	-17%	7%	-15%	3.3%	?	12%
N#Cc1ccccc1NC(=O)CSc1nnc(-c2ccccc2)n1-c1ccccc1	?	-32%	-19%	5%	?	-0.2%	?	-8%
CN(C)CCCNC(=O)C(=O)NCC1OCCN1S(=O)(=O)c1cccs1 (stereo not given)	?	16%	nt	3%	4%	nt	0%	3%
Clc1cccc(N2CCN(c3nc4ccccc4n4nnnc34)CC2)c1	-5%[46.1 µM]	nt	20µM*	nt	27%[46.1 µM]	-3.0%	33%[activator]	nt
COc1ccc(NC(=O)CSCC(=O)Nc2cc(Cl)ccc2N2CCCC2)cc1	nt	-6%	nt	1%	nt	nt	-24%	-6%
CCCCCCc1ccc(N2C[C@H](CCCCC)[C@@H](CC(=O)NCc3ccc(OC)cc3)C2=O)cc1	nt	16%	nt	2%	nt	nt	-17%	2%
Cc1ccccc1NC(=O)c1ccc2c(c1)C(=O)N(CCC(C)C)C2=O	11%	-10%	3%	-1%	-10%	7.0%	-14%	4%
CCOC(=O)C1CCN(C(=O)c2sc3nc(C)nc(N4CCC(C)CC4)c3c2C)CC1	-22%	-25%	?	-1%	-14%	-9.7%	?	-5%
O=c1cc(O)c2c(=O)n(C3CCCCC3)c3ccccc3c2o1	1%	3%	-11%	-23%	-12%	-4.2%	-25%	-7%
O=C(Nc1ccn(Cc2c(F)c(F)cc(F)c2F)n1)c1ccc(COc2ccc(Cl)cc2Cl)o1	?	19%	?	-7%	?	-8.4%	?	5%
Cc1ccc(-c2nc3ccccc3[nH]2)cc1NC(=O)COc1ccc(Cl)cc1Cl	-1%[46.1 µM]	nt	16%	nt	3%[46.1 µM]	-1.1%	-8%	nt
COCCCN=C1NN=C(c2cc(C)n(-c3ccccc3)c2C)CS1	-2%[46.1 µM]	15%	-5%	-2%	-21%[46.1 µM]	-6.9%	9%	?
CCOC(=O)C(CCCOc1cccc(OC)c1)C(=O)OCC	-9%	-61%	2%	-6%	-15%[14.3 µM]	-3.1%	1%	2%
Cn1c(SCC(=O)NCc2ccc3c(c2)OCO3)nc2scc(-c3cccs3)c2c1=O	-13%&-13%[46.1 µM]	-1%	?	30%	?	-2.5%	?	0%
Cc1cccc(N(Cc2cc3ccccc3[nH]c2=O)S(C)(=O)=O)c1	-13%[46.1 µM]	nt	nt	-11%	7%[46.1 µM]	nt	-6%	-4%
CCOC(=O)C1CCN(S(=O)(=O)Cc2ccccc2)CC1	?	12%	18%	10%	-21%	2.6%	15%	3%
CCSc1nnc2ccc(-c3ccc(C)cc3)nn12	nt	-7%	nt	16%	nt	nt	34%[activator]	-22%
